Screens deposited in PubChem BioAssay by several laboratories.
PKD1 inh – PKD1 (human) kinase inhibition; AID 797; 200,000 compounds, 0.056% hits; Q15139; inhibition, %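 (about 10 µM by stock and volumes)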; PKD1 kinase fluorescence polarization assay;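 active = inhibition of 50% or more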;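 note: controls were vehicle for no effect and a reference inhibitor for full effect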
RGS16-Gao – RGS16-Galphao interaction regulator (human); bead-based flow cytometry RGS16-Galphao binding, fluorescence; actives lie on both sides; binding response (% of control), % at 10 µM; 220,000 compounds, 0.38% hits;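 active = below 25% or above 175%, edge rows of some plates excepted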;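 note: Galphao activated by GDP with aluminum fluoride before binding; 100% = wells without compound and 0% = beads without RGS; some results beyond the cut were filed as inactive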
Target sequence (O15492 whole entry, looked up): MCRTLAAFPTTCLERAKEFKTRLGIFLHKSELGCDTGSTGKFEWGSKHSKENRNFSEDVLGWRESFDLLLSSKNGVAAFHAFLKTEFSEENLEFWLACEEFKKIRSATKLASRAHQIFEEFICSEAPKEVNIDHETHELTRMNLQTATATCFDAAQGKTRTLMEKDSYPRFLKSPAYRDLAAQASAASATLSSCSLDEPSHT
Target sequence (P09471 whole entry, looked up): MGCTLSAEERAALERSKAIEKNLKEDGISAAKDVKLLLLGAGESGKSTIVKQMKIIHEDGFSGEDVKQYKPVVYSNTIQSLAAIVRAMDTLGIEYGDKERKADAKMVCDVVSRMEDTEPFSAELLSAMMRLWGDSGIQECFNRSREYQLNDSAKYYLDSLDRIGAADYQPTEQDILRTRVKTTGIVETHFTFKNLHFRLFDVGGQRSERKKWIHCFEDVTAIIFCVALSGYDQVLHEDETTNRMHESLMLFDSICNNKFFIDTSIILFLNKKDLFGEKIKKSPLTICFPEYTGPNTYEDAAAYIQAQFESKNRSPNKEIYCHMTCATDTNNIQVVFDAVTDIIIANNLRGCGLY
GALR2 agonist – agonists of human galanin receptor 2 (GALR2); O43603; GALR2-expressing cells, agonist activation read-out; activation, %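 (tested at 5 µM)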; 140,000 compounds, 0.48% hits; AID 803;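 active = above mean plus 3 SD of all compounds, about 5% in these data, not always enough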;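 note: 0% = vehicle buffer wells and 100% = reference agonist at full effect; tested in CHO reporter cells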
Target sequence (O43603 whole entry, looked up): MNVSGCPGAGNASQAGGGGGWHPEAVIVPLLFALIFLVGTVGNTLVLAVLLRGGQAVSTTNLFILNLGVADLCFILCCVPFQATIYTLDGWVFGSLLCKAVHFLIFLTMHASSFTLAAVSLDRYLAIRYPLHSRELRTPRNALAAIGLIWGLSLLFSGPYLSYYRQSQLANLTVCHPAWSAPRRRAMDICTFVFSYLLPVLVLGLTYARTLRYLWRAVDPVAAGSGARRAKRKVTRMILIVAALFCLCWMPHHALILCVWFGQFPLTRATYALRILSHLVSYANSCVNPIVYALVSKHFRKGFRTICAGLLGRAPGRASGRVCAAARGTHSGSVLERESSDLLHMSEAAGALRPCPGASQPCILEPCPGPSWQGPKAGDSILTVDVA
Insulin prom inh – TRM-6 insulin promoter activity inhibition; TRM-6 cells (human fetal islet line), insulin promoter-eGFP reporter, imaging; reporter expression induced with tamoxifen; inhibition, % at 2 µM; 130,000 compounds, 0.9% hits;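 active = inhibition above the mean plus 3 SD, with well images judged a real hit on visual review, cut at about 60% in these data, passing the limit was not always enough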
HSV augment – HSV replication enhancement; HSV replication augmentation in cells, fold increase; maximum fold increase; 220,000 compounds, 0.005% hits;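 active = peak rise of 1.5-fold or more in the series; tested in PC3 cells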;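 note: first round at 10 µM; read as green reporter fluorescence; hits show the peak of a series up to 25 µM; 1 = signal of infected wells without compound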
Insulin prom inh cell count – recorded beside Insulin prom inh, whose call it bears; normalized cell count, %; measured here: cell count, toxicity; reference of the scale not given here;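 cells exposed to compound for 48 h; stained nuclei by imaging scaled within each plate; lower means fewer cells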
HSV augment primary fold – also measured in HSV augment; calls as there; fold increase; compound at 10 µM; measured here: primary screen fold increase 10 uM; tested in PC3 cells;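 GFP signal in the first replicate; 1 = infected wells without compound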
An asterisk follows results filed as active; i = inactive; nt = no result given.

SMILES | PKD1 inh | RGS16-Gao | GALR2 agonist | Insulin prom inh | Insulin prom inh cell count | HSV augment | HSV augment primary fold
CCOC(=O)c1sc(NC(=O)CNC(=O)Cn2cnc3sc(C)c(C)c3c2=O)nc1C | 3.5 | 108.7 | -3.7 | 0.0 | 127.0 | i | 0.77
CC(=O)c1ccc(N2C(=O)[C@@H]3C(CCC(N)=O)NC4(C(=O)Nc5c4ccc(Cl)c5C)[C@@H]3C2=O)cc1 (some centres not stated) | 15.1 | 102.8 | -0.7 | nt | nt | i | 0.94
Cc1cccc(C(=O)NNS(=O)(=O)c2ccccc2[N+](=O)[O-])c1 | 1.3 | 85.2 | 0.1 | 38.5 | 92.5 | i | 0.84
O=C(Cc1cccs1)Nc1ccc(-c2nc3ccccc3[nH]2)cc1 | 4.9 | 98.4 | -1.8 | nt | nt | i | 1
CNC(=S)N1CCN(c2ccccc2OC)CC1 | -9.8 | 120.4 | 0.7 | -2.8 | 71.6 | i | 0.88
O=C(OCc1nnc(-c2ccccc2)o1)c1cc(F)c(F)cc1Cl | -8.2 | 93.9 | nt | -62.2 | 99.2 | i | 1.04
COc1ccc(C2=NOC(C(=O)NCc3cccs3)C2)cc1 (configuration not stated) | 1.9 | 69.0 | -1.9 | -22.6 | 73.3 | i | 0.71
COCCCN1CCc2[nH]c(=S)[nH]c(=O)c2C1 | -8.5 | 101.5 | 0.6 | nt | nt | i | 1.26
CC(C)Nc1nc2c(c(=O)n(C)c(=O)n2C)n1C | nt | 98.0 | nt | nt | nt | i | 0.98
COc1ccc(NC(=O)CCS(=O)(=O)c2cccc3nonc23)c(OC)c1 | -2.1 | 100.4 | -2.1 | nt | nt | i | 0.74
O=C(Cn1nnc(-c2cccs2)n1)N1CCc2ccccc2C1 | 4.3 | 98.6 | -0.6 | nt | nt | i | 0.88
COc1ccc(-n2c(O)c(C=Nc3ccccc3)c3ccccc3c2=O)cc1OC | nt | 104.2 | nt | nt | nt | i | 1.11
CCC(CC)C(=O)Nc1cccc(-c2nc3ccccc3o2)c1 | -10.5 | 103.8 | -0.3 | 9.3 | 106.3 | i | 0.98
CC(=O)N1CCC(N(C(=O)Nc2c(F)cccc2F)C(C)C)CC1 | -7.6 | 104.8 | -2.5 | nt | nt | i | 0.97
Brc1ccc(CN2CCN(c3ccccn3)CC2)s1 | 2.1 | 97.7 | -4.2 | 64.3 | 106.7 | i | 0.86

Record cards, as listed above. Order of values: PKD1 inh | RGS16-Gao | GALR2 agonist | Insulin prom inh | Insulin prom inh cell count | HSV augment | HSV augment primary fold
COc1ccc(C2=NOC(C(=O)NCc3cccs3)C2)cc1 (configuration not stated) in the list: 1.9 | 69.0 | -1.9 | -22.6 | 73.3 | i | 0.71
CNC(=S)N1CCN(c2ccccc2OC)CC1 in the list: -9.8 | 120.4 | 0.7 | -2.8 | 71.6 | i | 0.88
Cc1cccc(C(=O)NNS(=O)(=O)c2ccccc2[N+](=O)[O-])c1 in the list: 1.3 | 85.2 | 0.1 | 38.5 | 92.5 | i | 0.84

Next section:
SMILES | PKD1 inh | RGS16-Gao | GALR2 agonist | Insulin prom inh | Insulin prom inh cell count | HSV augment | HSV augment primary fold
Cc1cc(Cl)ccc1C(=O)C1CCCN(C(=O)c2snnc2C)C1 (configuration not stated) | 5.3 | 112.2 | nt | nt | nt | i | 0.96
O=C(NCc1ccccc1)NC12CC3CC(CC(C3)C1)C2 | nt | 101.8 | nt | nt | nt | i | 1.04
O=C(O)CC/C(=N\NC(=O)c1ccccc1Br)c1ccccc1 | 7.7 | 103.5 | -0.3 | nt | nt | i | 1.04
Cc1cc(NC(=O)CN2C(=O)c3ccccc3C2=O)no1 | nt | 105.9 | nt | nt | nt | i | 0.89
O=C(COc1cc(Cl)c(Cl)cc1Cl)NCCc1ccccn1 | -3.5 | 109.9 | nt | -200.0 | 96.3 | i | 1.05
Cc1cc(Cl)ccc1OC(C)c1nnc(N)s1 (configuration not stated) | -1.5 | 108.8 | -1.0 | -14.3 | 131.6 | i | 0.91
CS(=O)(=O)Nc1ccc(C(=O)NCCSCc2ccccc2)cc1 | -0.8 | 94.3 | nt | nt | nt | i | 0.96
CCOc1ccc(NC(=O)CN(C)CC(=O)NC2CCCc3ccccc32)cc1OCC (configuration not stated) | -0.7 | 132.4 | 0.0 | 15.4 | 116.7 | i | 0.89
COc1ccc(C(=O)Nc2ccccc2NC(=O)c2ccco2)cc1OC | -4.0 | 98.8 | 0.2 | -24.2 | 115.6 | i | 0.83
O=C(N[C@@H](Cc1c[nH]c2ccccc12)C(=O)NC1CC1)c1ccccc1Cl | 3.2 | 88.0 | -0.7 | -6.7 | 55.8 | i | 1.03
CC(C)c1ccccc1NC(=S)NCc1ccccc1F | -2.6 | 102.0 | -0.7 | 10.7 | 101.2 | i | 0.89
CC(C)(C)C(=O)[C@H]1[C@H](c2ccccc2)[C@@]2(N=C(c3ccccc3)OC2=O)C2c3ccccc3C=NN21 (some centres not stated) | -10.5 | 86.2 | -3.1 | 13.2 | 106.8 | i | 0.99
COc1ccc2cc(C3CC(c4ccco4)=NN3C(=O)CCC(=O)O)c(Cl)nc2c1 (configuration not stated) | -0.1 | 99.6 | -0.8 | 7.7 | 105.3 | nt | nt
COc1cccc(C(=O)C2CCCN(CC3=Cc4cc(OC)ccc4OC3)C2)c1 (configuration not stated) | 6.0 | 103.7 | nt | nt | nt | i | 0.97
CNC[C@H](O)c1cccc(O)c1 | 5.5 | 104.7 | -0.6 | 4.5 | 132.2 | i | 0.92
O=C(/C=C/c1ccc(Br)cc1)NC(=S)Nc1ccc(S(=O)(=O)Nc2nccs2)cc1 | 4.0 | 76.8 | -0.4 | nt | nt | i | 1.05
C=COCCNC(=S)Nc1ccccc1 | -6.0 | 100.4 | nt | 0.0 | 170.2 | i | 0.94
O=C(OCC(=O)N1CCc2ccccc2C1)c1cccs1 | -2.3 | 101.3 | nt | nt | nt | i | 0.91
CCn1cc(C(=O)NCc2ccc(Cl)cc2)c(=O)c2cc(S(=O)(=O)N3CCOCC3)ccc21 | -3.2 | 101.0 | 0.0 | nt | nt | i | 0.9
CC(C)N(CCCNC(=O)CC1Oc2ccccc2NC1=O)Cc1ccccc1 (configuration not stated) | -10.5 | 127.2 | -1.5 | nt | nt | i | 0.96
Cc1cccc(N2CC(C(=O)OCC(=O)c3ccc(OC(=O)c4cccs4)cc3)CC2=O)c1C (configuration not stated) | -2.2 | 82.2 | -4.9 | 8.6 | 144.8 | i | 1.07
O=S(=O)(/C=C/c1ccccc1)N1CCN(Cc2ccc3c(c2)OCO3)CC1 | -6.0 | 98.7 | nt | nt | nt | i | 0.93
CCOC(=O)c1cc(C#N)c(N2CCN(C(=O)c3cccc(C(F)(F)F)c3)CC2)nc1C(F)(F)F | nt | 103.9 | nt | nt | nt | i | 1.06
CCc1ccc(C2=NN(CCC(=O)NCc3cccs3)C(=O)CC2)cc1 | -11.2 | 104.5 | nt | 28.6 | 136.6 | i | 0.88
COc1ccccc1NC(=O)C(=O)N/N=C(\C)CC(=O)Nc1ccc(OCc2ccccc2)cc1 | -1.0 | 99.6 | -0.1 | 3.3 | 68.4 | i | 0.89
Cc1ccc2nnnc(-c3ccccc3)c2c1 | -9.6 | 100.3 | -0.2 | nt | nt | i | 0.98
CC(=O)Nc1ccc(OCC(O)Cn2cnc3ccccc32)cc1 (configuration not stated) | -5.6 | 129.3 | -1.6 | -13.5 | 88.6 | i | 0.93
Cc1cc(NC(=O)CSc2nc3ccccc3n2CC(=O)N2CCCCC2)no1 | -13.1 | 98.8 | -1.3 | -57.9 | 131.4 | i | 1
CC1(C)Cc2ccccc2C(=NCC(=O)O)N1 | -0.9 | 106.8 | nt | 21.9 | 117.3 | i | 1
COc1ccccc1-c1nc(C#N)c(N2CCN(Cc3ccccc3)CC2)o1 | -0.1 | 103.8 | -2.1 | 0.0 | 119.0 | i | 1.03
COc1ccccc1NC(=O)CSc1nnc(-c2ccc(NC(C)=O)cc2)n1C | 5.3 | 104.4 | 0.9 | 0.0 | 91.0 | i | 0.97
CCOc1cc(C2CC(=O)NC3=C2C(=O)C(C(=O)OC)C(C)C3)cc(Cl)c1O (configuration not stated) | -9.8 | 100.8 | -1.4 | -33.3 | 119.1 | i | 0.94
Cc1cc(Cl)n2c(nc3cc(F)c(F)cc32)c1C#N | -1.7 | 100.2 | nt | -117.7 | 23.1 | i | 0.85
COc1ccc(OC(C)C(=O)N2CC(C)OC(C)C2)cc1 (configuration not stated) | -2.5 | 100.5 | -0.3 | -68.8 | 53.1 | i | 0.8
CC(C)(C)CN1CCNC(=O)C1CC(=O)N1CCC(C(=O)N2CCOCC2)CC1 (configuration not stated) | 1.5 | 111.7 | nt | nt | nt | i | 0.94
CCOc1cc(C(=O)Nc2nnc(C)s2)cc(OCC)c1OCC | 11.6 | 106.4 | -1.5 | nt | nt | i | 0.94
COc1ccc(-c2cc(C(=O)Nc3cc(C)nn3-c3ccccc3)no2)cc1 | -5.9 | 104.9 | 0.5 | 26.3 | 86.2 | i | 1.01
COCCn1cnc2c(c1=O)c1nc3ccccc3nc1n2/N=C/c1ccco1 | nt | 108.8 | nt | nt | nt | i | 1.11
C=CCn1c(-c2cnn(-c3ccccc3)c2N)n[nH]c1=S | nt | 104.7 | nt | nt | nt | i | 0.92
COc1ccc(NS(=O)(=O)c2cc(NC(=O)C3CCCO3)ccc2N2CCCCC2)cc1 (configuration not stated) | -4.7 | 104.1 | nt | -6.7 | 142.1 | i | 0.86
COc1cc(C(=O)NCCCNc2nc3c(C)cc(C)cc3cc2C#N)cc(OC)c1OC | 1.0 | 116.5 | nt | 26.1 | 49.8 | i | 1.09
COc1ccc(-n2nnnc2-c2cnc(N3CCCC3)nc2C(F)(F)F)cc1 | -1.8 | 73.2 | -1.5 | nt | nt | i | 0.98
O=C(CCNc1cccc(C(F)(F)F)c1)c1ccco1 | -2.8 | 104.3 | -2.5 | 3.5 | 21.2 | nt | nt
O=C(Nc1ccc(Cl)cc1)c1ccc2nsnc2c1 | -3.4 | 102.9 | nt | nt | nt | i | 0.9
CCC(C)C(=O)Nc1nc2c(s1)C(=O)CC(C)(C)C2 (configuration not stated) | -15.9 | 100.5 | -0.3 | nt | nt | i | 0.6
Cc1ccc(C(=O)Nc2ccc(CN3CCCCC3)cc2)c(C)c1 | 2.1 | 97.4 | nt | nt | nt | i | 0.81
Cc1cc(/C=C2/NC(=O)N(Cc3ccccc3F)C2=O)c(C)n1C | -7.1 | 91.9 | -1.8 | 17.2 | 31.9 | i | 0.95
Cn1c(Cn2c(=O)sc3ccccc32)nnc1SCC(=O)N1CCN(c2ccccc2)CC1 | 6.5 | 96.2 | -1.3 | nt | nt | nt | nt
COc1ccc(CCn2c(=N)c(C(=O)NCc3ccco3)cc3c(=O)n4cccc(C)c4nc32)cc1 | -4.1 | 82.8 | -1.3 | nt | nt | i | 0.9
CCCCCCCCCCCCN1C(=O)CSC1c1cccnc1 (configuration not stated) | nt | 100.0 | nt | nt | nt | i | 1.04
COC(=O)CSc1ncnc2c(C)csc12 | nt | 102.8 | nt | nt | nt | i | 1.01
O=C(O)C1=C[C@@H](c2csc3ccccc23)C[C@@H](OCc2ccc(CO)cc2)O1 | 6.4 | 99.0 | nt | nt | nt | i | 0.87
Cc1[nH]n(C2=NCCS2)c(=O)c1N=Nc1ccccc1 | -2.2 | 105.1 | nt | 11.8 | 111.9 | i | 1.02
CCc1cc2cc(C(=O)Nc3ccccc3F)sc2s1 | -5.5 | 91.7 | -0.6 | nt | nt | i | 0.94
Cc1cc(C(=O)NCc2cc(C)n(C)n2)sc1-c1ccccc1 | -8.0 | 96.5 | -0.6 | -18.8 | 114.1 | i | 1.01
COc1ccc(CCNc2oc(-c3ccccc3OC)nc2C#N)cc1OC | -1.2 | 83.4 | -0.8 | -28.6 | 147.3 | i | 0.987
CCOc1ccc(NCc2nnc(SCc3ccc(Cl)cc3)n2-c2ccccc2)cc1 | -3.5 | 95.1 | -3.4 | 46.7 | 90.2 | i | 0.96
CC(=O)Nc1cccc(-c2nnc(-c3ccccc3)o2)c1 | 3.7 | 101.6 | -0.3 | 71.4 | 62.3 | i | 1.06
CCCC(=O)Nc1cccc(-c2cn3ccsc3n2)c1 | 0.3 | 103.2 | -2.2 | nt | nt | i | 0.88
Cc1[nH]n(-c2ccccc2)c(=O)c1C=Nc1ccc(S(=O)(=O)Nc2nccs2)cc1 | -3.5 | 89.5 | nt | -20.0 | 68.8 | i | 1.16
CCCCOc1ccc(NC(=O)CSc2nnnn2C)cc1 | -8.1 | 100.2 | 0.0 | -319.1 | 39.5 | i | 1.01
O=C1CC(=C(c2ccccc2)c2ccccc2)C(=O)N1CCCN1CCN(c2cccc(Cl)c2)CC1 | 2.8 | 101.5 | -1.5 | 5.7 | 128.7 | i | 0.92
